# Assay outcomes: PubChem, Broad Institute
# FGF22 binding = shifts melting point of recombinant human FGF22; recombinant FGF22 thermal shift, SYPRO orange fluorescence; percent of sucrose octasulfate shift, DMSO zero; 340,000 tested, 1.5% active; calls only at 9.99 µM;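 active means melting point raised past a set limit in the mean and every replicate; three in four hits are not shown here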
# Target sequence (Q9HCT0 whole entry, looked up): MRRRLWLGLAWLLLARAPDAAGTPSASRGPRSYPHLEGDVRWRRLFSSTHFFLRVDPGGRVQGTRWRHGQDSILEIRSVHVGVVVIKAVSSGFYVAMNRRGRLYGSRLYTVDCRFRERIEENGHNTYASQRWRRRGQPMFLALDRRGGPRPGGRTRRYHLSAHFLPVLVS
# AF4-AF9 inh = blocks AF4 peptide binding to human AF9. inhibition, % at 10 µM. AlphaScreen, biotin-AF4 peptide binding to FLAG-AF9. 350,000 tested, 0.47% active;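 active means every replicate reaching a set inhibition limit, whatever the replicate mean, cut at about 25% in these data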;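 further: 0% = plate neutral control median and 100% = total signal loss; the record names both 10 and 1 µM as test concentration; the first replicate is given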
# Target sequence (P42568 whole entry, looked up): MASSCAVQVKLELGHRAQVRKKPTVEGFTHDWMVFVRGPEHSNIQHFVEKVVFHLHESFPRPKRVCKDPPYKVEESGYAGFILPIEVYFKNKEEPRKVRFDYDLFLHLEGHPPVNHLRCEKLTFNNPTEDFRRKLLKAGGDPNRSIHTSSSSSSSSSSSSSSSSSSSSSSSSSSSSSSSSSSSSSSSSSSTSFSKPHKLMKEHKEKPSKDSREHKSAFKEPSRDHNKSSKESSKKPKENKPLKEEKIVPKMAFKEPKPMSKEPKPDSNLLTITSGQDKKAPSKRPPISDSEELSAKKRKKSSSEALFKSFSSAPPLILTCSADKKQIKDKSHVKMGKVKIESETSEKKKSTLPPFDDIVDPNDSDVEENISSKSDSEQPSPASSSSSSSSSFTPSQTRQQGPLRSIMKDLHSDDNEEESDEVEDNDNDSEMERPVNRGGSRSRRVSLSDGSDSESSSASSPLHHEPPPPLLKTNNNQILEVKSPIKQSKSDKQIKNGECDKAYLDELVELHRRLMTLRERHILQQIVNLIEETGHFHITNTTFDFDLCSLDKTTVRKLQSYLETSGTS
# Ecoli rRNA inh = inhibits bacterial ribosomal RNA function over humanized ribosomes. GFP signal change (wild-type ribosome), % (test concentration not listed). E. coli WT GFP vs humanized-ribosome RFP mutants, fluorescence, 24 h; stronger effect = lower value; DMSO median 0, no signal -100. 350,000 tested, 1.6% active;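 active means significant combined selectivity score with lowered wild-type GFP, culture density cut under 30%, mutant RFP and density less affected; inactive means any of these conditions unmet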; further: one replicate is shown; some compounds called inactive have numbers as strong as hits
# Ecoli rRNA inh OD600 = further read-out of Ecoli rRNA inh, marked with its call; OD600 change, %; measured here: OD600 growth;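 optical density of the mix in the first replicate; 0 = DMSO median and -100 = no signal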
# Ecoli rRNA inh RFP = second read-out of Ecoli rRNA inh, no call of its own (marks repeat the call); RFP signal change, %; measured here: RFP humanized mutant strains;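 first replicate; 0 = DMSO median and -100 = no signal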
# Starred values were filed as active, the others as inactive; i = inactive; & = joins results of further samples. Only part of the results is shown, so the mix of outcomes need not match the whole.
# Start of the listing, in advance, 2 compounds:
FGF22 binding,AF4-AF9 inh,Ecoli rRNA inh,Ecoli rRNA inh OD600,Ecoli rRNA inh RFP,molecule
i,-0.2,-2,3,-3.0,Cc1ccc(S(=O)(=O)N[C@H]2CC[C@@H](CCNC(=O)C3CCCCC3)O[C@H]2CO)cc1
i,-8.4,0,-1,-2.3,CCCNC(=O)N1C[C@H](C)[C@@H](OC)CN(C)C(=O)c2ccc(NC(=O)C3CCC3)cc2OC[C@@H]1C

# The list itself (from the top)
FGF22 binding,AF4-AF9 inh,Ecoli rRNA inh,Ecoli rRNA inh OD600,Ecoli rRNA inh RFP,molecule
i,-0.2,-2,3,-3.0,Cc1ccc(S(=O)(=O)N[C@H]2CC[C@@H](CCNC(=O)C3CCCCC3)O[C@H]2CO)cc1
i,-8.4,0,-1,-2.3,CCCNC(=O)N1C[C@H](C)[C@@H](OC)CN(C)C(=O)c2ccc(NC(=O)C3CCC3)cc2OC[C@@H]1C
i,11,0,6,-1.0,CO[C@@H]1CC[C@H]2CCN(C)C(=O)C[C@H](c3ccccc3)CN(C)C(=O)c3cccc(C#N)c3OC[C@H]1O2
i,-0.9&-0.2&-1.3,5&2,17&4,3.7&-1.6,C[C@H]1CN([C@@H](C)CO)C(=O)CCCn2nncc2CO[C@H]1CN(C)S(C)(=O)=O
i,-1.4,9,14,-0.6,COc1cc(NC(=O)C2(C)CCCN2C(=O)C(C)C)cc(OC)c1OC (centres undefined)
i,0.4,4,2,-1.5,C[C@@H]1CN([C@@H](C)CO)C(=O)c2cc(NC(=O)Nc3ccc(C(F)(F)F)cc3)ccc2O[C@@H]1CN(C)Cc1ccc(Cl)c(Cl)c1
i,0.4,-3,-4,1.2,C[C@@H]1CN([C@H](C)CO)C(=O)c2cc(NC(=O)C3CCCCC3)ccc2O[C@@H]1CN(C)C(=O)Nc1ccc(F)cc1
i,-8.0,4,14,1.5,N#C[C@@H]1[C@@H](c2ccccc2C2=CCCC2)[C@H](CO)N1C(=O)C1CCOCC1
i,-0.8,-12,-24,2.0,C[C@@H]1CN([C@@H](C)CO)C(=O)c2cccc(NC(=O)CCCCCC(=O)Nc3ccccc3N)c2O[C@H]1CN(C)Cc1ccc2c(c1)OCO2
i,1.1,-2,-10,-0.6,CO[C@H]1CN(C)C(=O)c2ccc(NC(C)=O)cc2OC[C@H](C)N(Cc2cccc(F)c2)C[C@@H]1C
i,0.5,2,-2,1.4,O=C(C[C@H]1CC[C@H](NC(=O)CCN2CCCCC2)[C@H](CO)O1)NCc1ccc(Cl)c(Cl)c1
i,-0.1,-7,-4,-3.7,O=C(C[C@@H]1CC[C@@H](NC(=O)c2ccccc2)[C@H](CO)O1)NCc1ccc(Oc2ccccc2)cc1
i,-1.3,-14,-24,-6.2,Cc1cc(F)ccc1-c1cc(C(=O)NCc2ccccc2)[nH]n1
i,1.2,-1,-4,0.6,COc1cccc(/C=C/C(=O)OCC(=O)c2ccc[nH]2)c1
i,-6.8,-3,-1,1.0,CCCN(C)C[C@H]1Oc2cc(-c3ccc(C)cc3)ccc2S(=O)(=O)N([C@H](C)CO)C[C@H]1C
i,1.8,7,0,-1.5,CN(C)CC#Cc1ccc([C@@H]2[C@@H](CO)N3CCCCN(C(=O)C4CCC4)C[C@H]23)cc1
i,-2.1,3,-1,2.3,O=C(C[C@@H]1C[C@@H]2c3cc(NC(=O)CC4CC4)ccc3O[C@@H]2[C@H](CO)O1)NCc1ccc(-c2ccccc2)cc1
i,-1.1,2,4,-0.1,Cc1noc(C)c1NC(=O)Nc1ccc2c(c1)C(=O)N([C@H](C)CO)C[C@H](C)[C@H](CN(C)Cc1ccncc1)O2
i,-1.4,20,22,0.8,CCCCNC(=O)C(NC(=O)c1cccc(C(F)(F)F)c1)C(=O)c1ccccc1 (centres undefined)
i,0.7,3,1,4.1,CNC[C@@H]1Oc2cc(C#Cc3cccnc3)ccc2S(=O)(=O)N([C@@H](C)CO)C[C@@H]1C
i,-1.5,3,4,-0.9,C[C@@H]1CN([C@H](C)CO)C(=O)c2cc(NC(=O)CCC(F)(F)F)ccc2O[C@@H](C)CCCCO[C@@H]1CN(C)Cc1ccc(C(=O)O)cc1
i,-1.4,0,8,-3.9,COCC(=O)N1CC2(CCN(C(=O)NC(C)C)CC2)c2c(n(C)c3cc(OC)ccc23)[C@H]1CO
i,-1.5,-1,14,-4.6,C[C@@H]1CN([C@H](C)CO)C(=O)Cc2cc(NC(=O)Cc3cn(C)c4ccccc34)ccc2O[C@H]1CN(C)Cc1ccc(C(=O)Nc2ccccc2N)cc1
i,1.9,-6,-1,-0.3,O=C(Nc1cc(F)ccc1F)N[C@H]1CC[C@H](CC(=O)N2CCc3ccccc3C2)O[C@H]1CO
i,-3.2,1,17,1.1,N#C[C@@H]1[C@@H](c2ccccc2)[C@@H](CO)N1C(=O)C1CCCC1
i,6.3,10,14,-3.3,COc1ccc(CN2C[C@H](O)COC[C@@H]3O[C@H](CC(=O)NCCN4CCCC4)CC[C@H]32)cc1
i,0.1,5,10,-5.4,CC(=O)Nc1ccc(Cl)cc1C(=O)c1ccc[nH]1
i,-1.6,1,9,-3.7,COc1cccc(NC(=O)N2C[C@@H](O)COC[C@H]3O[C@H](CC(=O)N(C)C)CC[C@@H]32)c1
i,2.7,-16,-65,6.1,O=C(c1ccc(F)cc1)N1CC[C@H]2[C@H](CO)Nc3ccc(-c4ccccc4F)cc3[C@H]21
i,-0.3,4,4,2.6,C[C@H]1CN([C@@H](C)CO)C(=O)c2cccc(NS(=O)(=O)c3ccc(Cl)cc3)c2O[C@H]1CN(C)C(=O)Nc1ccc(C(F)(F)F)cc1

# An excerpt from above, showing only Ecoli rRNA inh OD600:
mol | Ecoli rRNA inh OD600
CO[C@@H]1CC[C@H]2CCN(C)C(=O)C[C@H](c3ccccc3)CN(C)C(=O)c3cccc(C#N)c3OC[C@H]1O2 | 6
C[C@H]1CN([C@@H](C)CO)C(=O)CCCn2nncc2CO[C@H]1CN(C)S(C)(=O)=O | 17&4
COc1cc(NC(=O)C2(C)CCCN2C(=O)C(C)C)cc(OC)c1OC (centres undefined) | 14
C[C@@H]1CN([C@@H](C)CO)C(=O)c2cc(NC(=O)Nc3ccc(C(F)(F)F)cc3)ccc2O[C@@H]1CN(C)Cc1ccc(Cl)c(Cl)c1 | 2
C[C@@H]1CN([C@H](C)CO)C(=O)c2cc(NC(=O)C3CCCCC3)ccc2O[C@@H]1CN(C)C(=O)Nc1ccc(F)cc1 | -4
N#C[C@@H]1[C@@H](c2ccccc2C2=CCCC2)[C@H](CO)N1C(=O)C1CCOCC1 | 14

# (continued)
FGF22 binding,AF4-AF9 inh,Ecoli rRNA inh,Ecoli rRNA inh OD600,Ecoli rRNA inh RFP,molecule
i,-1.9,0,3,-0.2,C[C@@H]1CN([C@@H](C)CO)C(=O)c2cc(NS(=O)(=O)c3cccs3)ccc2O[C@@H]1CN(C)C(=O)Nc1ccccc1
i,-3.7,3,12,-0.9,O=S(=O)(c1ccccc1F)N1CCCCN2[C@@H](CO)[C@H](c3ccc(-c4cncnc4)cc3)[C@@H]2C1
i,-0.6,3,1,-4.3,CCC(=O)N1C[C@H](C)[C@@H](OC)CN(C)C(=O)c2cc(NC(=O)c3cnccn3)ccc2OC[C@@H]1C
i,-0.5,7,17,-2.9,C[C@@H]1CN([C@H](C)CO)C(=O)c2cc(-c3ccc(F)cc3)cnc2O[C@@H]1CN(C)CC1CCOCC1
i,-10,12,19,-2.3,CC[C@H]1C(Nc2ccccc2)C[C@@H]2CCN3C(=O)CC[C@H]1[C@H]23 (some centres undefined)
i,1.9,8,-1,2.9,CCOC(=O)[C@]12CCCC=C1N(Cc1ccccc1)C(=O)[C@H](CC(=O)N1CCCC1)C2
i,-0.7,5,17,0.1,O=C(NOCc1cscn1)Nc1ccccc1
i,3.3,-32,-70,2.2,CC(=O)C1=C(C)N(CC(C)C)C(=S)NC1c1cccc(Cl)c1 (centres undefined)
i,-6.1,1,8,-1.5,O=C(NC1CCCC1)N1CCCCN2[C@H](CO)[C@H](c3ccc(-c4ccncc4)cc3)[C@@H]2C1
i,-4.3,1,-1,0.1,C[C@H](CO)N1C[C@H](C)[C@H](CN(C)C(=O)Nc2ccc(C(F)(F)F)cc2)Oc2ccc(NC(=O)Nc3ccc(C(F)(F)F)cc3)cc2C1=O
i,0.2,-18,-45,-4.3,N#C[C@@H]1[C@H](c2ccccc2-c2cccc(F)c2)[C@H](CO)N1S(=O)(=O)c1cccc(F)c1
i,-0.9,1,3,1.5,COc1ccccc1CNC(=O)C[C@@H]1C[C@@H]2c3cc(NC(=O)NC4CCCC4)ccc3O[C@@H]2[C@@H](CO)O1
i,-0.6,4,7,-0.8,C[C@@H]1CN([C@@H](C)CO)C(=O)c2cc(C3=CCCC3)cnc2O[C@@H]1CN(C)Cc1cccnc1
i,-15,0,6,-2.2,COc1ccc(S(=O)(=O)N(C)C[C@H]2OCCCC[C@@H](C)Oc3ccc(NC(=O)Nc4cccc5ccccc45)cc3C(=O)N([C@H](C)CO)C[C@H]2C)cc1
i,-9.9,0,2,-2.8,CCS(=O)(=O)N1CCCCN2[C@@H](CO)[C@H](c3ccc(-c4cccc(C#N)c4)cc3)[C@@H]2C1
i,-7.1,0,-3,19,Fc1ccc(-c2nc3c4ccccc4ccn3c2CC2CCCCC2)cc1
i,-0.3,0,-8,-2.5,COc1ccc(NC(=O)N(C)C[C@H]2Oc3cc(-c4ccncc4)ccc3S(=O)(=O)N([C@H](C)CO)C[C@@H]2C)cc1
i,0.1,3,0,1.0,COCC(=O)Nc1ccc2c(c1)C(=O)N(C)[C@@H]1CC[C@H](CC(=O)Nc3ccccc3)O[C@H]1CO2
i,-1.9,4,3,-0.7,COc1ccccc1-c1ccccc1[C@H]1[C@@H](C#N)N(C(=O)C2CCOCC2)[C@@H]1CO
i,-2.0,3,3,1.6,COc1ccc(NC(=O)Nc2ccc3c(c2)C(=O)N([C@H](C)CO)C[C@H](C)[C@H](CN(C)Cc2ccccc2)OCCCC[C@@H](C)O3)cc1
i,-2.9,6,15,-0.9,CC(C)NC(=O)N(C)C[C@H]1Oc2c(NC(=O)C3CCOCC3)cccc2C(=O)N([C@@H](C)CO)C[C@@H]1C
i,1.3,0,-8,1.2,C[C@@H]1CN([C@H](C)CO)C(=O)c2cc(NC(=O)c3ccccc3)ccc2O[C@@H](C)CCCCO[C@H]1CN(C)C(=O)Nc1cccc2ccccc12
i,-11,4,3,-1.5,COc1ccc(NC(=O)N(C)C[C@@H]2Oc3c(NC(=O)NC(C)C)cccc3C(=O)N([C@@H](C)CO)C[C@@H]2C)cc1
i,0.0,3,-1,0.1,O=C(Cc1ccncc1)N[C@@H]1CC[C@@H](CCn2cc(-c3ccccc3F)nn2)O[C@@H]1CO
i,3.5,-3,2,-2.1,C[C@@H]1CCCCO[C@@H](CN(C)C(=O)Nc2cccc3ccccc23)[C@H](C)CN([C@H](C)CO)C(=O)c2cc(NS(=O)(=O)c3cccs3)ccc2O1
i,-2.3,1,4,1.0,CCCNC(=O)C[C@H]1CC[C@H]2[C@@H](COC[C@H](O)CN2C(=O)CC)O1
i,-0.3,1,8,2.4,CN1C(=O)c2cc(NC(=O)c3cccs3)ccc2OC[C@@H]2O[C@H](CC(=O)N3CCOCC3)CC[C@@H]21
i,2.5,4,2,-1.5,COc1ccc(NC(=O)N(C)C[C@H]2Oc3ccc(NC(=O)Cc4cn(C)c5ccccc45)cc3CC(=O)N([C@H](C)CO)C[C@H]2C)cc1
i,-1.1,-2,4,2.7,C[C@H]1CN([C@@H](C)CO)C(=O)c2cc(NS(=O)(=O)c3cccs3)ccc2O[C@H]1CN(C)C(=O)Nc1ccc(C(F)(F)F)cc1
i,1.5,1,-14,2.8,CCS(=O)(=O)N1CCCCN2[C@H](CO)[C@H](c3ccc(-c4ccccc4)cc3)[C@H]2C1

# Full records as entered above. Order of screens: FGF22 binding | AF4-AF9 inh | Ecoli rRNA inh | Ecoli rRNA inh OD600 | Ecoli rRNA inh RFP
# Entry for O=C(NOCc1cscn1)Nc1ccccc1 → i | -0.7 | 5 | 17 | 0.1
# Entry for O=S(=O)(c1ccccc1F)N1CCCCN2[C@@H](CO)[C@H](c3ccc(-c4cncnc4)cc3)[C@@H]2C1 → i | -3.7 | 3 | 12 | -0.9

# (more compounds)
FGF22 binding,AF4-AF9 inh,Ecoli rRNA inh,Ecoli rRNA inh OD600,Ecoli rRNA inh RFP,molecule
i,3.4,5,8,-1.0,C[C@@H]1CN([C@@H](C)CO)S(=O)(=O)c2ccc(C#CCN(C)C)cc2O[C@@H]1CN(C)CC1CC1
i,0.0,0,1,-2.3,COc1ccc(S(=O)(=O)N(C)C[C@@H]2OCCCC[C@H](C)Oc3ccc(N(C)C)cc3C(=O)N([C@H](C)CO)C[C@H]2C)cc1
i,0.1,2,2,-0.3,Cc1ccc(S(=O)(=O)N(C)C[C@H]2Oc3ccc(NC(=O)C4CC4)cc3CC(=O)N([C@@H](C)CO)C[C@H]2C)cc1
i,-33,9,2,0.1,C[C@H](CO)N1C[C@H](C)[C@H](CN(C)C(=O)CC2CC2)Oc2ncc(C#Cc3cccnc3)cc2C1=O
i,-2.9,8,13,-1.9,CCOC(=O)[C@]12CCCC=C1N(Cc1ccccc1)C(=O)[C@H](CC(=O)N1CCN(C(=O)c3ccco3)CC1)C2
